Screening results: PubChem, National Center for Advancing Translational Sciences (NCATS)
Sfp inh = inhibitors of Bacillus subtilis Sfp phosphopantetheinyl transferase | Q9F4F7 | Biochemical Sfp PPTase activity, qHTS | Potency, µM, inactives show max response, negative = inhibition, actives largely listed as inhibitors | 310,000 tested, 3.5% active | AID 1490; active = well fitted inhibition curve with a large enough effect; inconclusive = small, poorly fitted or top-dose-only effect, or another doubt; inactive = no such curve, though single readings can be large or run the other way;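 also: the enzyme is Sfp with the accession as filed and its product quenches rhodamine fluorescence; potency is read from the fitted curve at half-maximal effect; 0% = enzyme reaction without inhibitor and -100% = no enzyme wells; top concentration of the series not given in the record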
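After 15 min at room temperature with compound, 15 nM Sfp received 5 uM rhodamine-CoA plus 12.5 uM BHQ-2-ybbR (50 mM Hepes pH 7.6, 10 mM MgCl2). Rate came from the fluorescence difference over 30 min, ex 525/em 598 nm.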
Menin-MLL FL inh = inhibitors of human menin-MLL interaction, wild-type MLL peptide; Fluorescence polarization, fluorescein-MLL peptide displacement from menin; FP activity change, % at 61.4 µM; 290,000 tested, under 10 active; inconclusive = falling polarisation curve, or a change in total fluorescence; inactive = total fluorescence flat and polarisation flat or rising; no compound was filed as active; the % refers to the polarisation; negative = inhibition;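 also: % of control where 0% means no effect; inhibitors lower the polarisation; unlabelled MLL peptide was the positive control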
* marks the source's active call; other numbers are inactive results; ? = inconclusive; / = no result given; & = joins results of further samples; ! = not confirmed by another sample; [ ] = remark or other dose.

SMILES	Sfp inh	Menin-MLL FL inh
C[C@@H](C(=O)Nc1ccc2ccccc2c1)[C@H]1C[C@]1(C)[C@H](NS(=O)(=O)c1ccc2ccccc2c1)c1ccccc1	13.1%	-2.7
C[C@@](N)(Cc1ccc(O)cc1)C(=O)O	-2.1%	2.5
C[C@@]1(C(=O)O)NCCc2cc(O)c(O)cc21	56.2µM*	0.5
NCCC[C@H](N)CC(=O)N[C@H]1CNC(=O)[C@@H]([C@@H]2C[C@H](O)N=C(N)N2)NC(=O)/C(=C/NC(N)=O)NC(=O)[C@@H](CO)NC(=O)[C@@H](CO)NC1=O	24.9%	-1.2[24.8 µM]
CC[C@]12CCCN3CCc4c(n(c5ccccc45)C(=O)C1)[C@H]32	9.2%	21.6
O=C(O)c1sccc1S(=O)(=O)Nc1ccccc1N1CCCCC1	6.7%	-2.6
Cc1nc2cnc(Nc3ccccc3)nc2n(C2CC2)c1=O	22.7%	0.1
Cc1ccc(Sc2cncc3sc(C(N)=O)cc23)cc1	11.2%	-0.9
COC(=O)[C@@H]1CC[C@H](C)[C@@H](c2ccc(C)cc2)N1C(=O)c1ccc(/C=N\O[C@@H](C)c2cc(-c3c(C)cc(C)cc3C)no2)cc1	-14.5%	-0.1[11.7 µM]
CN1CCN(c2ncc3nc(-c4ccc(Cl)cc4)c(=O)n(Cc4ccc(F)cc4)c3n2)CC1	-19.8%	-5.5
O=C(O)c1cc(Oc2ccc([N+](=O)[O-])cc2)cc(Oc2ccc([N+](=O)[O-])cc2)c1	4.6%	4.9
Cc1noc(C)c1-c1ccc2ncnc(NCc3ccccc3Cl)c2c1	-6.9%	7.3

An excerpt from above in order of the Menin-MLL FL inh value, rising:
SMILES	Sfp inh	Menin-MLL FL inh
CN1CCN(c2ncc3nc(-c4ccc(Cl)cc4)c(=O)n(Cc4ccc(F)cc4)c3n2)CC1	-19.8%	-5.5
C[C@@]1(C(=O)O)NCCc2cc(O)c(O)cc21	56.2µM*	0.5
C[C@@](N)(Cc1ccc(O)cc1)C(=O)O	-2.1%	2.5
Cc1noc(C)c1-c1ccc2ncnc(NCc3ccccc3Cl)c2c1	-6.9%	7.3

Remaining list, next part:
SMILES	Sfp inh	Menin-MLL FL inh
CCC(CC)(CC(=O)Nc1cccc(/C=C/c2nc(C3CCC3)cs2)c1)C(=O)O	10.6%	0.5
c1cn(-c2ccnc(-c3ccc4c(c3)OCO4)n2)cn1	-2.4%	1.4
Cl/C(=C\n1cncn1)c1ccc(Cl)cc1Cl	7.6%	-8.1
CCC/C=C(\CCC)C(NC(=O)c1ccco1)c1ccc(C(=O)OC)cc1 (stereo unspecified)	13.8%	5.1
COc1ccc2c(c1)c(C1=C(c3c[nH]c4ccccc34)C(=O)NC1=O)cn2CCCN(C)C	-28.7%	17.4
Cc1cn([C@H]2C[C@H](N=[N+]=[N-])[C@H](CO)O2)c(=O)[nH]c1=O	19.6%	-1.9
O=C(c1cc(C(F)(F)F)cc(C(F)(F)F)c1)N1CCC2(CCCN(c3ccccc3)C2)CC1	18.6%	2.2
Cc1cc(O)c(C)c2c1CC[C@H]1[C@H](C)C(=O)O[C@H]21	26.2%	-0.4
CCOC(=O)O[C@]1(C(=O)OCCl)CC[C@@H]2[C@H]3CCC4=CC(=O)C=C[C@]4(C)[C@@H]3[C@@H](O)C[C@@]21C	4.3%	2.6
Cn1cccc1C(=O)N1CCC2(CC1)CN(Cc1cc(C(F)(F)F)cc(C(F)(F)F)c1)C2	34.9%[activator]	-1.7
Clc1ccccc1-c1nc(-n2ccnc2)c2ccccc2n1	3.3%	6.5
CC1CC(O)CC(C)(C)C1 (stereo unspecified)	7.9%	1.4

2 entries from above, set out differently:
Results follow in this order: Sfp inh, Menin-MLL FL inh
O=C(c1cc(C(F)(F)F)cc(C(F)(F)F)c1)N1CCC2(CCCN(c3ccccc3)C2)CC1
→ 18.6%, 2.2
Cc1cc(O)c(C)c2c1CC[C@H]1[C@H](C)C(=O)O[C@H]21
→ 26.2%, -0.4

Remaining list, next part:
SMILES	Sfp inh	Menin-MLL FL inh
CC(C)C[C@@H](CC(=O)N[C@@H](CCC(=O)O)CC(=O)O)NC(=O)[C@@H]1CNCC[C@H]1NC(=O)C[C@H](CCCN)NC(=O)C[C@H](Cc1c[nH]c2ccccc12)NC(=O)[C@@H]1CNCC[C@H]1N	-23.1%	0.4
CN[C@@H]1[C@H](O[C@@H]2O[C@H](CO)[C@@H](N)[C@H](O)[C@@H]2O)O[C@H]2C[C@@H](N)[C@@H](O[C@H]3[C@@H](O)[C@H](O)[C@H](N)C[C@@H]3N)O[C@H]2[C@H]1O	10.5%	2.4[24.8 µM]
Cc1ccccc1-c1cncnc1Nc1ccc(F)cc1	-2.9%	-1.6
CNC(=O)C1(C(F)(F)F)C/C(=C/CCO)CCCO1 (stereo unspecified)	15.1%	1.5
Clc1ccccc1-c1ccc2ncnc(NC3CCNCC3)c2c1	5.5%	-4.7
COCCn1c(=O)c(-c2ccc(OC)cc2)nc2cnc(Nc3cccc(OC)c3)nc21	10.6%	?
COc1ccc(-n2c(=O)c(C)nc3cnc(Oc4cccc(Cl)c4)nc32)cc1	-12.2%	15.0
C=C1C(=O)OC2C1CC/C(C)=C/CCC1(C)OC21 (stereo unspecified)	-13.5%	-0.7
O=C1C(O)=C(O)C(=O)C(O)=C1O	28.2µM*	-7.7
COC(=O)C/C=C\[C@@H](C)[C@@H](/C=N\O[C@@H](C)CN1CCCc2nc(C)c(C)cc21)OC	1.0%	-5.3[11.7 µM]
CCOCC(O)COc1ccc(NC(=O)CC[S+](C)C)cc1 (stereo unspecified)	14.4%	-5.3
C[C@@H](O)CCC[C@H](O)/C=C/[C@@H]1[C@@H](C/C=C\CCCC(=O)O)[C@@H](O)C[C@H]1O	-7.0%	2.1

3 entries drawn at random from those above:
SMILES	Sfp inh	Menin-MLL FL inh
Clc1ccccc1-c1ccc2ncnc(NC3CCNCC3)c2c1	5.5%	-4.7
C[C@@]1(C(=O)O)NCCc2cc(O)c(O)cc21	56.2µM*	0.5
Clc1ccccc1-c1nc(-n2ccnc2)c2ccccc2n1	3.3%	6.5

Next part.
SMILES	Sfp inh	Menin-MLL FL inh
N#Cc1cccc(NC(=O)N2CC[C@@]3(CCCN(C(=O)c4ccncc4)C3)C2)c1	-6.3%	-1.0
COc1cccc(Cn2c(=O)c(-c3cn(C)c4ccccc34)nc3cncnc32)c1	4.0%	8.0
COc1ccc2c(c1)O[C@@H](c1cccc(C(F)(F)F)c1)[C@H](OC(=O)NCc1ccco1)C2=O	-4.4%	-2.4
Cc1noc(C)c1C(=O)N1CCC2(CCCN(C(=O)Nc3ccccc3)C2)CC1	13.6%	0.1
COC(=O)[C@H]1CC=C[C@H]2CCN(Cc3ccc(Cl)c(Cl)c3)C(=O)[C@@H]12	-3.4%	-0.3
CC(CCc1ccc(O)cc1)NCC(O)c1ccc(O)cc1 (stereo unspecified)	17.6%	1.6
COc1ccc(OC)c(C2=Nn3c(nnc3-c3cccc(OC)c3OC)SC2)c1	29.5%	7.4
Cc1noc(C)c1-c1cc(N(C)C)ncn1	2.3%	-2.4
Cc1ccc(S(=O)(=O)NC(=O)O[C@@H]2C(=O)c3cc(Br)ccc3O[C@H]2c2ccc3c(c2)OCO3)cc1	8.8%	?
COc1cccc(Nc2ncc3nc(-c4ccc(F)cc4)c(=O)n(C[C@H]4CCCO4)c3n2)c1	-10.9%	?
COC(=O)CC1c2ccccc2C(Cc2ccc(OC)cc2)C(C)N1C(=O)OC (stereo unspecified)	-5.6%	-4.1[11.7 µM]
CO[C@H]1C=CO[C@]2(C)Oc3c(C)c(O)c4c(O)c(c5c(c4c3C2=O)NC2(CCN(CC(C)C)CC2)N=5)=NC(=O)C(C)=CC=C[C@@H](C)[C@@H](O)[C@@H](C)[C@@H](O)[C@@H](C)[C@@H](OC(C)=O)[C@@H]1C	15.0%	2.0[24.8 µM]

Compound profiles, from the list above. Values in the order: Sfp inh | Menin-MLL FL inh
Results for `COc1ccc(OC)c(C2=Nn3c(nnc3-c3cccc(OC)c3OC)SC2)c1` → 29.5% | 7.4
Results for `CO[C@H]1C=CO[C@]2(C)Oc3c(C)c(O)c4c(O)c(c5c(c4c3C2=O)NC2(CCN(CC(C)C)CC2)N=5)=NC(=O)C(C)=CC=C[C@@H](C)[C@@H](O)[C@@H](C)[C@@H](O)[C@@H](C)[C@@H](OC(C)=O)[C@@H]1C` → 15.0% | 2.0[24.8 µM]
Results for `COC(=O)CC1c2ccccc2C(Cc2ccc(OC)cc2)C(C)N1C(=O)OC` (stereo unspecified) → -5.6% | -4.1[11.7 µM]
Results for `COc1ccc2c(c1)O[C@@H](c1cccc(C(F)(F)F)c1)[C@H](OC(=O)NCc1ccco1)C2=O` → -4.4% | -2.4
Results for `Cc1noc(C)c1C(=O)N1CCC2(CCCN(C(=O)Nc3ccccc3)C2)CC1` → 13.6% | 0.1

(next part)
SMILES	Sfp inh	Menin-MLL FL inh
Cc1nc2cnc(N(C)C)nc2n(-c2ccccc2)c1=O	16.7%	10.9
COc1cccc(CC(=O)N2CCc3nc(-c4ccccc4)c4c(c3C2)CO[C@@H](C)C4)c1	0.2%	-1.6[11.7 µM]
C=C(CC(=O)OC)C[C@]1(CC(=O)OC)CC2(CC=C(C)C)C(=O)C(C(=O)c3ccccc3)=C(OC(=O)c3ccc(Br)cc3)C(CC=C(C)C)(C1)C2=O (stereo partly specified)	1.4%	0.5[11.7 µM]
O=C(O)Cc1nn(Cc2ccc(Br)cc2F)c(=O)c2ccccc12	15.3%	?
C[C@]12CCC3c4ccc(O)cc4CCC3C1CC(O)C2O (stereo partly specified)	5.1%	-3.8
CCCCC/C=C\C[C@@H]1O[C@H]1C(O)/C=C\C/C=C\CCCC(=O)O (stereo partly specified)	23.3%	4.3
c1ccc2sc(N3CCN(Cc4ccc5c(c4)OCO5)CC3)nc2c1	?	/
C[C@H](Oc1ccccc1)C(=O)N[C@@H]1C(=O)N2[C@@H]1SC(C)(C)[C@@H]2C(=O)O	?	-0.8[24.8 µM]
COC(=O)NC(CC(C)=O)c1ccccc1 (stereo unspecified)	-7.2%	0.5[11.7 µM]
CC1CN2C(CCC(C)C2c2ccc(Br)cc2)C(=O)O1 (stereo unspecified)	19.9%&4.4%&-11.7%	7.3&-0.2&3.5[11.7 µM]
Cc1ccc(CNc2ncnc3ccc(-c4c(C)noc4C)cc23)o1	-12.7%	4.1
COc1ccc(/C=C/c2cc(O)cc(O[C@H]3OC(CO)C(O)C(O)C3O)c2)cc1 (stereo partly specified)	12.4%	0.1
CN(C)C(=O)c1ccc(-c2ccc3ncnc(N4CCNCC4)c3c2)cc1	27.3%	-6.2
CC(=O)N1CCC2(CCCN(c3ccccc3)C2)CC1	8.4%	9.6
CC12C=C(/C=C/c3ccc(C(F)(F)F)cc3)C(C)(C1)C(c1ccc(C(F)(F)F)cc1)CC2=O (stereo unspecified)	12.3%	0.7[11.7 µM]
Cc1cc(-c2ccc(N=Nc3ccc4c(S(=O)(=O)O)cc(S(=O)(=O)O)c(N)c4c3O)c(C)c2)ccc1N=Nc1ccc2c(S(=O)(=O)O)cc(S(=O)(=O)O)c(N)c2c1O	10µM*!	?
CN(Cc1ccco1)c1nc(-c2ccoc2)nc2ccccc12	?	0.2
N#Cc1ccc(CN2CC[C@@]3(CCCN(S(=O)(=O)c4ccccc4)C3)C2)cc1	27.6%	0.7
COc1ccc(C(=O)N2CCC3(CC2)CCN(c2cccc(-c4ccccc4)c2)CC3)cc1	-2.6%	9.9
COc1cccc(-c2nc(N(C)Cc3ccco3)c3ccccc3n2)c1	?	-3.8
Cn1c(=O)c(-c2ccc(F)cc2)nc2cnc(OCc3ccccc3)nc21	-0.5%	1.1
COc1cccc(CNc2ccc3nc(-c4ccc(N)cc4)c(OC)n3n2)c1	16.0%&-24.6%	158.2[activator]
COCC(=O)N1CCC2(CC1)CN(C(=O)Nc1ccccc1)C2	19.7%	-3.2
CS(=O)(=O)N1CCC2(CCCN(c3cccc(-c4ccccc4)c3)C2)CC1	12.7%	14.6
CC(C)Cn1nnnc1S(=O)(=O)CCc1ccccc1	21.3%	-0.2
CCNc1ncc2nc(-c3ccc(Cl)cc3)c(=O)n(C[C@H]3CCCO3)c2n1	3.6%	1.7
COc1ccccc1-c1nc(NC2CC2)c2ccccc2n1	-4.8%	2.9
CCC(O)c1ccccc1 (stereo unspecified)	4.2%&1.4%&17.5%	5.6&1.8&2.9
O=c1c(CCc2ccccc2)nc2cnc(N3CCNCC3)nc2n1CCc1ccccc1	39.8µM*	11.2
Cc1nc(N=Nc2cc([N+](=O)[O-])ccc2Cl)c(COP(=O)(O)O)c(C=O)c1O	-21.1%	-2.1

Some of the compounds tested; count on the stated rates, not on these rows.
